gsp antagonist: antagonizes gsp, the McCune-Albright syndrome mutation; gsp-mutant cells, cAMP HTRF, 30 min; control for the full effect not named in the record; Potency, µM (series often up to 76.9 µM), inactives show at the top dose activity change, negative = inhibition, most hits filed as inhibitors; 340,000 compounds, 0.4% hits; AID 624288; active = falling curve of any shape with a large fitted effect; inconclusive = falling curve, mostly with a smaller effect; inactive = flat or rising curve; cell line not stated here;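 also: intracellular cAMP measured with PDE inhibitor Ro 20-1724 present during compound exposure; potency is read from the fitted curve at half-maximal effect; % is scaled to controls: 0 for no effect and ±100 for the full control effect; nearly all actives have a fitted effect of over 65% in size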
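Cells, 2000/well, grown 16–24 h in DMEM 10% FBS with 0.5 mg/ml G418, then compounds plus […] (300 uM addition stock), 30 min at 37C. cAMP read by HTRF (cAMP-d2 and anti-cAMP antibody-K in lysis buffer) after 30 min RT.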
ClpP mod: qHTS Assay for Activators of ClpP; ATP-dependent Clp protease proteolytic subunit (Bacillus subtilis (strain 168)), P80244; purified B. subtilis ClpP, FRET peptide cleavage, 20 min; Potency, µM (highest dose often 57.5 µM), for the others: at the highest dose activity change, negative = active; 340,000 compounds, 1.9% hits; AID 651965, 2013; active = well fitted falling curve with a large enough effect; inconclusive = small, poorly fitted or top-dose-only effect; inactive = no such curve, though single readings can be large or run the other way; also: potency is read from the fitted curve at half-maximal effect; the source files actives as falling curves though it sought activators and does not explain the sign; nearly all actives have a fitted effect of over 65% in size; many hits overshoot -100%
Target sequence (P80244 whole entry, looked up): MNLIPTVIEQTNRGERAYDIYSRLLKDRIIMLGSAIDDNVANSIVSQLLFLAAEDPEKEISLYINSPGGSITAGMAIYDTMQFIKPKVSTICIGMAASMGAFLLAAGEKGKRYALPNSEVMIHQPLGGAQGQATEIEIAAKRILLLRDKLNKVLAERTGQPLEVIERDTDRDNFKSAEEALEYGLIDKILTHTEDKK
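ClpP 10 microg/mL final, pH 8 Tris/KCl buffer with BSA, glycerol, Tween-20; compound pinned in; FRET-FV substrate; RT 20 min; Ex320/Em430; ΔFRET vs ADEP 5.8 microM, DMSO, no enzyme.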
Menin MLL FP FL: menin-MLL binding inhibition, fluorescein peptide; Fluorescence polarization, fluorescein-MLL peptide displacement from menin; FP activity change, % at 61.4 µM; 290,000 tested, under 10 active; AID 1766; inconclusive = falling polarisation curve, or a change in total fluorescence; inactive = total fluorescence flat and polarisation flat or rising; no compound was filed as active; the % refers to the polarisation; negative = inhibition;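 also: % of control where 0% means no effect; inhibitors lower the polarisation; unlabelled MLL peptide was the positive control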
TRPML1 inh: blocks the human TRPML1 channel | 390,000 compounds, 0.02% hits | activity change, negative = inhibition, % (no concentration beside the values) | TRPML1-inducible cells, Ca2+ dye fluorescence, FDSS; stronger effect = lower value; inhibition of EC80 agonist-evoked calcium signal | Q9GZU1; in the data active means activity change below about -50%; inconclusive means about -30% to -50%; inactive means above about -30%;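 also: stimulus is agonist 54-4 at its EC80 concentration; % is scaled to controls: 0 for no effect and ±100 for the full control effect; compound concentration not given in the record; the text of the record puts the active cut at -80%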
Target sequence (Q9GZU1 whole entry, looked up): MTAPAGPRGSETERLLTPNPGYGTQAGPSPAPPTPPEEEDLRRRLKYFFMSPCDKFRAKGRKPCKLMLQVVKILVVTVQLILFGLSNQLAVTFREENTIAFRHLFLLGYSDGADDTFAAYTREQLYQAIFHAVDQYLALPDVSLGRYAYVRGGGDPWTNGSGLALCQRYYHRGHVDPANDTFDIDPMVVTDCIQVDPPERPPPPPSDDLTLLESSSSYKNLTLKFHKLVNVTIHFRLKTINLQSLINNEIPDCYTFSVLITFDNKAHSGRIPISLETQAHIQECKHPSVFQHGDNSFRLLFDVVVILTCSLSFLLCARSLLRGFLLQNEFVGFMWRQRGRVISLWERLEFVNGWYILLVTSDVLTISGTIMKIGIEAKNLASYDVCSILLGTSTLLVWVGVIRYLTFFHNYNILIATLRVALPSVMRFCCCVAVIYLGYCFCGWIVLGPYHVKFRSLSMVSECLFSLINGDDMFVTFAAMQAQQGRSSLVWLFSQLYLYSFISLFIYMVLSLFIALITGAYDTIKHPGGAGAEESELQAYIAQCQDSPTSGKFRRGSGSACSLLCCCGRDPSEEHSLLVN
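Calcium fluorescence in TRPML1-DL cells induced overnight with Tet: a 110 s read after compound pin addition, then a 110 s antagonist read after challenge with 54-4 at 4 uM final (EC80).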
gsp ag: gsp mutant agonism | gsp mutant cells, cAMP HTRF, 30 min; control for the full effect not named in the record | Potency, µM (doses to about 76.9 µM), for inactives: top-dose activation (cAMP increase), most hits filed as activators | 340,000 compounds, 0.13% hits | AID 624287; active = well fitted activation curve with a large enough effect; inconclusive = small, poorly fitted or top-dose-only effect, or another doubt; inactive = no such curve, though single readings can be large or run the other way; cell line not stated here;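 also: phosphodiesterase inhibitor Ro 20-1724 added with compounds to block cAMP breakdown; potency is read from the fitted curve at half-maximal effect; nearly all actives have a fitted effect of over 60% in size; about a fifth of the inactives were tested at one dose only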
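Cells in DMEM/10% FBS with G418 were pretreated with compounds in DMSO plus […] (300 uM stock) for 30 min at 37C. cAMP was measured by HTRF (cAMP-d2 plus anti-cAMP antibody-K) after 30 min at room temperature.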
TRPML1 agonist: agonists of human TRPML1 channel. Q9GZU1. TRPML1-expressing cells, Ca2+ dye fluorescence, FDSS; host cell line not named in the record; reference of the full effect not given here. activation, % (concentration not given with the values). 410,000 compounds, 0.12% hits; in the data active = activation above about 50%; inconclusive = about 30% to 50%; inactive = below about 30%; also: 0% is about no effect; the text of the record puts the active cut at 80%
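Agonist activity was taken from a 110 s kinetic Ca2+ dye read on the FDSS after pinning compounds onto TRPML1-DL cells. The cells were seeded at 1,500/well with Tet inducer, incubated about 16 h, then dye-loaded at room temperature.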
* hit, by the source's call; ? = inconclusive; . = no result given; [ ] = remark or other dose.

SMILES	gsp antagonist	ClpP mod	Menin MLL FP FL	TRPML1 inh	gsp ag	TRPML1 agonist
COCCn1c(C)cc(C(=O)CSc2nc3nc(C)cc(C)n3n2)c1C	1%	-1.2%	5.2	22	22%	1.9
CCCN(CCC)C(=O)Cn1c(=O)n(-c2ccccc2)c(=O)c2c3c(sc21)CCCC3	.	1.7%	.	-8	.	-0.5
CCOC(=O)c1ccc(-c2ccc(/C=C(\C#N)C(=O)Nc3ccc(C)cc3)o2)cc1	.	-2.4%	.	-12	.	0.7
CC1CCCN(S(=O)(=O)c2ccc(-c3ccc(=O)[nH]n3)o2)C1 (stereo unspecified)	6%	-1.0%	.	3	23%	-0.7
Nc1nc(Cn2nnc(-c3ccccc3F)n2)nc(N2CCOCC2)n1	15%	-0.4%	-0.8	-22	13%	-0.8
COc1cccc(C(=O)NC(=S)Nc2ccc(N3CCCC3)cc2)c1	-7%	-0.2%	3.9	-10	-27%	0.7
Cc1cc(Nc2ccc3c(c2)OCCO3)c2cc(Cl)ccc2n1	2%	10%	5.4	22	?	0.3
CC(C)CN(CCNC(=O)c1cc(=O)[nH]c2ccc(S(=O)(=O)N3CCCCCC3)cc12)CC(C)C	.	-2.1%	.	7	.	0.2
CC1=NN(c2ccc(C)c(C)c2)C(=O)/C1=C/c1ccc2c(c1)n(C)c(=O)n2C	-7%	0.8%	6.9	12	24%	0.9
O=C(CSc1nnc(-c2ccc(F)cc2)o1)N1CCCc2ccccc21	.	-4.0%	.	28	.	-0.1
O=C(NCCc1ccc(Cl)cc1)c1ccc2c(c1)nc1n2CCOC1	.	0.3%	.	2	.	0.1
CCN(CC)CCN(Cc1cc2ccc(C)cc2[nH]c1=O)C(=O)NC1CCCCC1	.	.	2.8	-4	24%[15.4 µM]	0.3
CCCCn1c(SCC(=O)NC2CC2)nc2cc(C(=O)OC)ccc2c1=O	.	-4.8%	.	-1	-83%[inhibitor]	-1.3
O=C(Nc1ccc(Cl)c(Cl)c1)Nc1nnc(-c2ccncc2)s1	7%	0.1%	6.6	1	-4%[15.4 µM]	-0.6
COc1ccc(Cl)cc1NC(=O)CN(C)C(=O)c1cc2c(s1)CCC(C)C2 (stereo unspecified)	-35%	-1.1%	.	12	-6%[15.4 µM]	2.1
O=C(O)c1ccc(N/N=C/C=C/c2ccccc2)cc1	-18%	-5.2%	-1.0	16	-25%	1.7
COc1cccc(CCC(=O)N(C)C2CCCN(Cc3ccccc3F)C2)c1 (stereo unspecified)	-4%	-1.3%	0.1	31	-11%	0.4
COC(=O)c1ccc(NC(=O)c2nc(-c3ccc(Cl)cc3)n3c2CCCCC3)cc1	.	?	.	0	.	-0.1
CCCCOC(=O)c1cc(=O)[nH]c(=O)[nH]1	2%	-2.3%	-2.5	-2	-27%	-0.1
CCOC(CCn1c(SCC(=O)Nc2cc(C)on2)nc2ccccc2c1=O)OCC	-7%	-3.8%	-3.6	-1	-30%	2.1

Complete entries, looked up by structure:
O=C(O)c1ccc(N/N=C/C=C/c2ccccc2)cc1 is listed as gsp antagonist: -18%; ClpP mod: -5.2%; Menin MLL FP FL: -1.0; TRPML1 inh: 16; gsp ag: -25%; TRPML1 agonist: 1.7
COC(=O)c1ccc(NC(=O)c2nc(-c3ccc(Cl)cc3)n3c2CCCCC3)cc1 is listed as gsp antagonist: .; ClpP mod: ?; Menin MLL FP FL: .; TRPML1 inh: 0; gsp ag: .; TRPML1 agonist: -0.1

(next part)
SMILES	gsp antagonist	ClpP mod	Menin MLL FP FL	TRPML1 inh	gsp ag	TRPML1 agonist
CCOc1ncccc1C(=O)NCCN1C(=O)S/C(=C/c2cccs2)C1=O	-15%	-2.9%	.	-16	-20%	1.6
CCOc1cccc(NC(=O)CSc2nncn2N)c1	-1%	0.8%	-4.3	-11	-42%[inhibitor]	-0.2
O=C(CC(O)(C(F)(F)F)C(F)(F)F)Nc1ccc(Cl)c(Cl)c1	7.1µM*	1.8%	4.4	-2	-63%[inhibitor]	0.8
Cc1ccc(-c2noc(CCC(=O)N3CCCc4ccccc43)n2)cc1	?	-4.7%	1.0	21	6%	0.9
COCCNc1nc(N2CCCCC2)c2cnn(C)c2n1	5%	-0.7%	?	-2	-3%	0.7
Cc1c(NS(=O)(=O)c2ccccc2)cc(C(C)C)c(O)c1S(=O)(=O)c1ccc(Cl)cc1	.	0.9%	.	48	.	-0.1
CCOC(=O)c1ccc([N+](=O)[O-])c(CS(=O)(=O)c2ccc(Cl)cc2)c1	-12%	0.6%	4.1	9	4%	1.8
CCOC(=O)c1nn(-c2cccc(OC)c2)c(-c2ccccc2)c1C(=O)c1ccccc1	-20%	0.5%	4.7	-13	-4%	0.8
O=C(CSc1nc(Nc2ccccc2)nc(N2CCOCC2)n1)Nc1cc(Cl)ccc1O	-11%	0.9%	.	-3	1%	-0.5
CCN1CCN(c2ccc(NC(=O)c3ccc(Cl)c(S(=O)(=O)N4CCCC4)c3)cc2)CC1	-4%	0.7%	.	-7	11%[15.4 µM]	-0.2
Cc1ccc2c(c1)C(N1CCCC1=O)CC(c1ccco1)N2 (stereo unspecified)	6%	?	?	-5	-20%	0.6
CC(=O)Nc1ccccc1OCC(=O)c1ccc2c(c1)OCO2	-1%	-1.9%	1.3	-4	-22%	0.5
CCNCc1cc(Cl)c(OCc2ccccc2)c(OCC)c1	11%	.	-0.3	45	44%	0.1
COc1cc(C(=O)Nc2ccc(NC(=O)c3ccco3)nc2)cc(OC)c1OC	-7%	-1.3%	0.8	15	-6%	0.3
O=C(NCCCSc1ccccc1)c1ccc(=O)[nH]c1	20%	-2.8%	.	-2	40%	0.2
COc1cccc(-c2sc3ccccc3c2-c2ccc(OCCN3CCCCC3)cc2)c1	17%	?	.	31	.	-0.7
C=CCn1cnc2c(NCc3ccccc3)ncnc21	10%	-12%	2.9	-1	13%	0.1
COc1cc(C)ccc1OCC(=O)NCC1CCCO1 (stereo unspecified)	3%	-0.3%	.	10	24%	0.1
Cc1cc(Sc2nccn2C)ncc1[N+](=O)[O-]	12%	.	-2.1	12	-20%[15.4 µM]	-0.5
Cc1ccc(C(C)C)c(OCCCNCc2cccnc2)c1	6%	.	-1.8	-10	0%	4.6
CCN(CC)C(=O)Cn1c(=O)n(Cc2ccc(C(=O)NCc3ccc(C)cc3)cc2)c(=O)c2ccccc21	.	-7.7%	.	-1	.	-0.5
COc1cc(C(=O)OCC(=O)c2cc(C)n(C)c2C)cc(NC(=O)c2ccco2)c1OC	-13%	22%	-2.5	1	3%	0.5
Cc1cc(C)c(S(=O)(=O)N2CCCCC2)cc1N(C)S(=O)(=O)c1ccc(Cl)cc1	-11%	0.7%	-0.3	58	-13%	1.4
CCn1c(SCC(=O)Nc2cc(F)ccc2C)nnc1-c1ccccc1O	-13%	-2.0%	-0.6	?	28%	0.5
O=C(CCCCCn1c(=S)[nH]c2ccc(Br)cc2c1=O)NCC1CCCO1 (stereo unspecified)	12%	0.2%	-1.3	0	14%	0.4
CCOCCCNC(=O)C(NC(=O)CNC(=O)c1ccccc1)c1ccc(OC)cc1 (stereo unspecified)	19%	.	-1.9	-5	-9%	0.5
Cc1cccc(C(=O)N2CCCC(N3CCN(c4ccc(F)cc4)CC3)C2)n1 (stereo unspecified)	20%	-1.5%	0.5	19	?	-1.8
COc1cc(NC(=O)Cc2cccc3ccccc23)c(C(=O)O)cc1OC	?	-4.2%	0.9	-2	-24%	1.4
Cc1ccc(NC(=O)Cn2nc(C)c3ccccc3c2=O)cc1F	-3%	-2.2%	0.8	8	?	3.4
CCC(C)NCC(O)(c1ccc(Cl)cc1)c1ccc(Cl)cc1 (stereo unspecified)	-1%	.	-2.4	-21	-2%[15.4 µM]	1.9
Cc1cc(NC(=O)CSCC(=O)Nc2cccc(S(=O)(=O)N3CCCCCC3)c2)no1	2%	.	.	1	-10%[15.4 µM]	0.8
C[C@H]1CCC[C@]2(O[C@@H](CCO)C[C@H](O)[C@H]2O)O1	13%	-3.9%	3.0	-4	.	-0.1
O=C(NC1CC2CCCC(C1)N2C(=S)Nc1ccccc1)C1CC1 (stereo unspecified)	4%	.	4.9	-12	?	0.5
COc1ccc(NC(=O)c2c(C)oc3ccc(O)c(CN4CCOCC4)c23)cc1	.	1.1%	.	22	.	-0.8
Cc1cc(C)c(S(=O)(=O)N2CCN(Cc3ccc4c(c3)OCO4)CC2)cc1C	.	-10%	.	10	.	1.6
COc1ccc(-c2nn[nH]n2)cc1OC	9%	-1.2%	6.1	-9	-19%	-0.6
CC1(C)CC2CC(C)(CN2C(=O)c2cc(-c3ccccc3)on2)C1 (stereo unspecified)	-9%	.	9.7	0	15%	0.6
CCOCCCNC(=O)c1ccc2c(c1)ncn2-c1ccc(C)cc1C	-17%	.	1.9	6	30%	1.7
Cc1cc(C(=O)CSc2nnnn2C)c(C)n1C1CC1	-6%	-0.1%	7.4	-21	-18%	3.5
COc1ccc(CNC(=O)C(CCSC)NC(=O)c2ccco2)cc1 (stereo unspecified)	6%	0.5%	5.0	5	-30%[inhibitor]	-0.5
O=C(C1=C[C@@H](c2ccc(Br)cc2)C[C@@H](OCc2ccc(CO)cc2)O1)N1CCN(Cc2ccccc2)CC1	-7%	-2.7%	13	-9	1%	-0.4
Oc1ccccc1O	11%	-2.5%	1.4	16	.	0.5
CC(C)(C)C1CCc2c(sc(NC(=O)Cn3nnc(-c4cccc(C(F)(F)F)c4)n3)c2C#N)C1 (stereo unspecified)	.	-0.7%	.	-1	.	0.5
O=C(c1ccc2snnc2c1)N1CCN(c2ccccc2)CC1	6%	-2.2%	0.1	-5	25%	4.9
CCCC(=O)C1=C(c2ccccc2)C(C#N)(C#N)C(C#N)=C1N	1%	0.6%	?	-1	6%	1.5
CCN(CC(=O)Nc1ccc2c(c1)OCCO2)C(=O)c1ccc(S(=O)(=O)N(C)C)cc1	-6%	-1.8%	.	2	5%	-0.4
COc1cccc(C(=O)Nc2ccc3c(c2)C(=O)c2ccccc2C3=O)c1	4%	-0.3%	-0.3	4	-6%	1.8
CCOc1ccc(/C=N/Nc2ccccn2)cc1	3%	-16%	-0.5	-12	25%	1.6
CCn1c(-c2cc(-c3ccccc3)sc2N)n[nH]c1=S	-18%	.	2.3	24	0%	2.1
CCOC(=O)CN1C(=O)N(c2ccccc2OC)S(=O)(=O)c2ccccc21	5%	1.4%	2.9	8	?	-1.0
COC(=O)c1sccc1NC(=O)CN(C)NS(=O)(=O)c1ccc([N+](=O)[O-])cc1	-12%	0.7%	3.7	8	-3%	-0.1
COc1ccc(C(=NN)c2ccc(OC)cc2)cc1	-4%	.	.	-17	10%	0.7
CC(=O)NC(=O)c1nnn(Cc2ccccc2)c1NC(C)=O	8%	1.7%	-1.9	-2	20%	-0.2

Source: PubChem (National Center for Advancing Translational Sciences (NCATS))
